# Source: PubChem BioAssay (several laboratories)
# Beta2AR agonist = activates human beta-2 adrenergic receptor causing internalization; P07550; Am2.2-beta2AR cells, FAP receptor internalization, flow cytometry; reference of the scale not given here; response, % (test concentration not listed); 0.43% of 340,000 active;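 active means response above a set limit, near 3 SD of response in nonfluorescent compounds, cut at about 42% in these data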;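 further: stock transfer was 100 nL into about 11 µL; a reference agonist was the positive control; negative values mostly stem from fluorescent compounds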
# Target sequence (P07550 whole entry, looked up): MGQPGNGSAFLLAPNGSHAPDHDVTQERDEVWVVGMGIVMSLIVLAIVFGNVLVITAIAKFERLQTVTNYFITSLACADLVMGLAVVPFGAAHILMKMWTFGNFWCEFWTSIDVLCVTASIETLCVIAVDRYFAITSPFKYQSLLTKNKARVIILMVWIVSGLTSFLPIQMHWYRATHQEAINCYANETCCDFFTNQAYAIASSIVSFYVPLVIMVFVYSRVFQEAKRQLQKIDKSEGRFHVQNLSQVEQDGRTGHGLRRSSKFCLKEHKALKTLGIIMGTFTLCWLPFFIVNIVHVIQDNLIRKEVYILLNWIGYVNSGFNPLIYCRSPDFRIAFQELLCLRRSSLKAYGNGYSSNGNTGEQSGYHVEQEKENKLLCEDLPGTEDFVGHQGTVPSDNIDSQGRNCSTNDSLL
# HNF4A DNA FP = change in binding of human HNF4 alpha to DNA; HNF4a-FITC DNA binding, fluorescence polarization, 1 h; activity change, % at 10 µM; P41235; 0.3% of 360,000 active; AID 1224865; in the data active means activity change above about 30%, passing the limit was not always enough;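 further: controls were the assay level and a saturating level of protein; the project sought stronger binding though the title names inhibitors; some compounds called inactive have numbers as strong as hits; positive values seem to mean higher polarization but the record does not say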
# Target sequence (P41235 whole entry, looked up): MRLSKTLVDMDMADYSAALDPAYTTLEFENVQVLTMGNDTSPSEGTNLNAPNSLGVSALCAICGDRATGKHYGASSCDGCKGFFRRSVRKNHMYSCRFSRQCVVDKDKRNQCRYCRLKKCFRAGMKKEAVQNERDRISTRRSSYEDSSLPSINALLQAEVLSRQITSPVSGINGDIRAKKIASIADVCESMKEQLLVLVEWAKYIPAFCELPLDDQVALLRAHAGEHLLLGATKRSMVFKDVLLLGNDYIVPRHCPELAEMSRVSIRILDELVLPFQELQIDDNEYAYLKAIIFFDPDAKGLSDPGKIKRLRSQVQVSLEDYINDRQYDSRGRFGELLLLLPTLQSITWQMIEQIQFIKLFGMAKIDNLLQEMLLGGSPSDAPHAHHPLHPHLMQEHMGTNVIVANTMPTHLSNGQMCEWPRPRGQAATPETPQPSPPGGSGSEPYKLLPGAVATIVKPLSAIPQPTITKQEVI
# Starred values were filed as active, the others as inactive.
SMILES,Beta2AR agonist,HNF4A DNA FP
COc1ccc(NC(=O)c2ccc(NC(=O)C3COc4ccccc4O3)cc2)c(OC)c1 (stereo unspecified),-1,2.4
CO[C@H]1/C=C/O[C@@]2(C)Oc3c(C)c(O)c4c(O)c(c5c(c4c3C2=O)NC2(CCN(CC(C)C)CC2)N=5)=NC(=O)/C(C)=C\C=C\[C@H](C)[C@H](O)[C@@H](C)[C@@H](O)[C@@H](C)[C@H](OC(C)=O)[C@@H]1C,1,1.6
COC(=O)[C@H](C)N(Cc1ccc(Cl)c(Cl)c1)S(=O)(=O)CCN1CCCC1,-2,3.5
COC(=O)c1ccc(/C=C2\SC(=S)N(CCCC(=O)N3CCOCC3)C2=O)cc1,-5,-2.6
CC(Sc1nnc(CN2CCCC2)n1Cc1ccccc1)C(=O)Nc1ccc(F)c(F)c1F (stereo unspecified),-12,2.8
Cc1cc(C(=O)COC(=O)c2nn(C)c(=O)c3ccccc23)c(C)n1C,-6,0.0
COc1ccccc1C(=O)NC(CCSC)C(=O)OCC(=O)N1CCN(S(=O)(=O)c2ccc(C)cc2)CC1 (stereo unspecified),-9,7.4
C#CCN1C=CC(=O)[C@@H](OC(=O)Nc2ccccc2Br)[C@H]1c1ccccc1Br,10,1.1
CN(C)S(=O)(=O)c1ccc(C(=O)N2CCN(S(=O)(=O)c3ccc4c(c3)OCCO4)CC2)cc1,4,-0.7
COc1ccc(CCNC(=O)COC(=O)CSc2ccc(C(N)=O)cc2[N+](=O)[O-])cc1OC,2,3.2
COC(=O)[C@]1(C)N[C@H](CN(C)C(=O)C2CCCCC2)[C@@H]2C(=O)N(C)C(=O)[C@@H]21,-1,-2.3
CC(=O)NC12CC3CC(C1)CC(C(=O)N1CCN(S(=O)(=O)c4cccc([N+](=O)[O-])c4)CC1)(C3)C2,-6,2.5
CCN1C[C@@H]2[C@@H]3C(=O)N(Cc4ccccc4)C(=O)[C@@H]3[C@](CC)(C1=O)N2C(=O)c1ccccc1,-2,-1.0
COc1ccc(CN(C)CCCn2cnc3c(OCc4ccccc4)ncnc32)cc1OC,-14,-0.9
COc1ccc(CN2CCN(C(=O)c3ccccc3C(=O)c3ccccc3)CC2)cc1OC,0,-0.9
CCOc1ccc(NC(=O)COC(=O)CCC(=O)c2cccs2)cc1,12,-2.6
CCOC(=O)N1C(=O)NC(=O)C1c1ccccc1 (stereo unspecified),-11,0.2
O=C(c1ccccc1)N1N=C(c2ccc(F)cc2)CC1c1ccc(F)cc1 (stereo unspecified),7,-4.5
CC(=O)Nc1ccc(NC(=O)C(C)Sc2nnc(C3CC3)n2-c2ccccc2)cc1 (stereo unspecified),2,1.0
CC(C)(C)CC(C)(C)N=C1Nc2cc(Cl)c(Cl)cc2NC12C[C@H]1CCC(=O)N3CC[C@@H](C2)[C@@H]13 (stereo partly specified),28,-0.6
Cc1c2cnn(CC(=O)NCCN3CCOCC3)c(=O)c2c(C)n1Cc1ccccc1F,11,-0.9
Cc1ccc(S(=O)(=O)Nc2cc(C)cc(CCNC=O)c2C)cc1,-10,0.0
COc1ccc(C(=O)N[C@H](C(=O)OCCCOC(=O)[C@@H](NC(=O)c2ccc(OC)cc2)C(C)C)C(C)C)cc1,-5,3.2
O=C(Cc1cccc(NC(=O)C2CCCN(C(=O)C3CC3)C2)c1)Nc1cccc(C(=O)N2CCCCC2)c1 (stereo unspecified),-3,-1.0
CC(=O)OCCC(C)C,0,2.6

# Laid out differently: seven of the compounds above
Beta2AR agonist | HNF4A DNA FP | canonical_smiles
-2 | 3.5 | COC(=O)[C@H](C)N(Cc1ccc(Cl)c(Cl)c1)S(=O)(=O)CCN1CCCC1
-5 | -2.6 | COC(=O)c1ccc(/C=C2\SC(=S)N(CCCC(=O)N3CCOCC3)C2=O)cc1
-12 | 2.8 | CC(Sc1nnc(CN2CCCC2)n1Cc1ccccc1)C(=O)Nc1ccc(F)c(F)c1F (stereo unspecified)
-6 | 0.0 | Cc1cc(C(=O)COC(=O)c2nn(C)c(=O)c3ccccc23)c(C)n1C
-9 | 7.4 | COc1ccccc1C(=O)NC(CCSC)C(=O)OCC(=O)N1CCN(S(=O)(=O)c2ccc(C)cc2)CC1 (stereo unspecified)
10 | 1.1 | C#CCN1C=CC(=O)[C@@H](OC(=O)Nc2ccccc2Br)[C@H]1c1ccccc1Br
4 | -0.7 | CN(C)S(=O)(=O)c1ccc(C(=O)N2CCN(S(=O)(=O)c3ccc4c(c3)OCCO4)CC2)cc1

# Next entries follow.
SMILES,Beta2AR agonist,HNF4A DNA FP
Cc1c(N(C)S(=O)(=O)c2ccc(Cl)c(C(=O)NCC3CCCO3)c2)c(=O)n(-c2ccccc2)n1C (stereo unspecified),4,-3.0
Cc1ccc(C)c(S(=O)(=O)N2CCN(C(=O)Cc3sc(C)nc3-c3ccc(F)cc3)CC2)c1,12,-3.2
CN(Cc1ccc(OC(F)F)cc1)C(=O)c1cccc(S(=O)(=O)N2CCN(c3ccccc3)CC2)c1,3,0.7
COc1ccc(NC(=O)c2cc(S(=O)(=O)N3CCOCC3)ccc2C)cc1S(=O)(=O)N1CCCCC1,1,-2.7
O=S1(=O)c2ccc(Br)cc2OC(COCc2ccccc2)CN1Cc1ccccc1 (stereo unspecified),-5,0.8
N#CC1=C(SCC(N)=O)NC(=O)CC1c1cccc2ccccc12 (stereo unspecified),-11,0.4
O=[N+]([O-])c1cc2c(c3cccnc13)COCO2,4,-9.6
O=C(COc1coc(CN2CCN(c3ccc(F)cc3)CC2)cc1=O)NC1CCCCC1,3,0.7
COc1ccc(S(N)(=O)=O)cc1C(=O)NNC(=O)c1cccc(S(=O)(=O)N2CCOCC2)c1,0,-1.1
CSCc1cccc(C(=O)OC(C)C(=O)Nc2c(C)n(C)n(-c3ccccc3)c2=O)c1 (stereo unspecified),-12,-1.1
CC1CCC(C(C)C)C(OC(=O)Cn2c(-c3ccc(F)cc3)[n+](C)c3ccccc32)C1 (stereo unspecified),2,1.3
C#CCOCCOCCOCCNc1nc(N2CCN(C(=O)Cn3cc(CCO)nn3)CC2)nc(N2CCN(C(=O)[C@H]([C@@H](C)CC)n3cc(CCCCN)nn3)CC2)n1,-8,1.4
O=c1[nH]cnc2c1ccn2C1OC(CO)C(O)C1O (stereo unspecified),0,-2.5
O=C(NCCc1ccccc1)c1cccc(NC(=O)C2CC2)c1,-3,0.5
Cc1ccc(S(=O)(=O)NC(CCC(N)=O)C(=O)NCc2ccc3c(c2)OCO3)c(C)c1 (stereo unspecified),9,1.1
COc1ccc(OC)c(NC(=O)CSc2ncnc3sc(C)cc23)c1,8,-6.1
C=CC[C@@H](CC(=O)NCCO)C(=O)N[C@@H](COC(=O)[C@@H](CC=C)Cc1ccc(F)cc1)Cc1ccccc1,8,-4.9
COc1ccc(C(=O)Nc2ccccc2-c2nnn(CC(N)=O)n2)cc1,15,1.5
COc1ccc(C(=O)Nc2cccc(S(=O)(=O)N(C)C)c2)cc1S(=O)(=O)N1CCOCC1,-4,5.6
O=S1(=O)c2c(F)cccc2OC(COc2ccccc2)CN1CCc1ccc(F)cc1 (stereo unspecified),2,-0.8
CCCCCC1C(=O)N2C=C(c3ccccc3)c3ccccc3N2C1=O (stereo unspecified),-9,-3.9
CCCCNC(=O)CSc1nnc(-c2cccc(S(=O)(=O)N3CCOCC3)c2)o1,13,-2.6
O=C(Cc1ccc(NC(=O)C2CCCN(C(=O)C3CCCCC3)C2)cc1)Nc1cccc(C(=O)N2CCCC2)c1 (stereo unspecified),-10,-2.5
NC(=O)c1ncn([C@@H]2O[C@H](CNCc3ccccc3C#Cc3ccccc3)[C@@H](O)[C@H]2O)n1,-3,2.4
CCCCCCCCNS(=O)(=O)CCNCc1ccco1,-7,-1.3

# Copied from the list:
# Reading for `CN(Cc1ccc(OC(F)F)cc1)C(=O)c1cccc(S(=O)(=O)N2CCN(c3ccccc3)CC2)c1` under Beta2AR agonist: 3
# Reading for `O=C(NCCc1ccccc1)c1cccc(NC(=O)C2CC2)c1` under Beta2AR agonist: -3
# Reading for `N#CC1=C(SCC(N)=O)NC(=O)CC1c1cccc2ccccc12` (stereo unspecified) under Beta2AR agonist: -11
# Reading for `Cc1ccc(C)c(S(=O)(=O)N2CCN(C(=O)Cc3sc(C)nc3-c3ccc(F)cc3)CC2)c1` under HNF4A DNA FP: -3.2
# Reading for `COc1ccc(C(=O)Nc2cccc(S(=O)(=O)N(C)C)c2)cc1S(=O)(=O)N1CCOCC1` under HNF4A DNA FP: 5.6
# Reading for `CCCCCCCCNS(=O)(=O)CCNCc1ccco1` under HNF4A DNA FP: -1.3

# The listing continues:
SMILES,Beta2AR agonist,HNF4A DNA FP
Cc1ccc(S(=O)(=O)N2CCN(S(=O)(=O)c3ccccc3Br)CC2)cc1,-10,1.3
O=Cc1ccc(F)c([B-](F)(F)F)c1,-5,2.1
O=C(c1cccc(S(=O)(=O)N2CCN(c3ccc(F)cc3)CC2)c1)N1CCN(c2ccccc2O)CC1,-3,-3.7
COC(=O)c1ccc(CCc2cc(O)c(Br)cc2O)cc1,15,4.7
Cc1ccc(NC(=O)c2ncn(CCCN3CCN(c4ncccn4)CC3)n2)cc1C,-1,2.0
CCOc1ccc(NC(=O)CN(C)C(=O)c2ccc(OCC(=O)N3CCOCC3)c(OC)c2)cc1OCC,3,-0.9
CCOc1ccc(OCCC(=O)OCC(=O)N(CC)c2c(N)n(Cc3ccccc3)c(=O)[nH]c2=O)cc1,-2,-1.8
CCC(C)n1c(SCC(=O)N(CC)c2c(N)n(Cc3ccccc3)c(=O)[nH]c2=O)nc2ccccc2c1=O (stereo unspecified),-3,-1.4
CCN1C[C@@H]2[C@@H]3C(=O)N(C)C(=O)[C@@H]3[C@](C)(C1=O)N2C(=O)c1ccc(Cl)cc1,-11,6.7
Cc1ccc(C2CC(=O)Oc3cc(C)cc(C)c32)cc1 (stereo unspecified),-8,-1.3
CC(C)(C)OC(=O)N1CCC(C(=O)Nc2cccc(C(=O)N3CCCCC3)c2)CC1,2,2.1
CN1C[C@@H]2[C@@H]3C(=O)N(Cc4ccccc4)C(=O)[C@@H]3[C@](Cc3ccccc3)(C1=O)N2C(=O)c1ccc(Br)cc1,5,-2.3
Cc1ccc(NC(=O)c2ccc(S(=O)(=O)N(C)c3ccccc3)cc2)cc1S(=O)(=O)N1CCOCC1,6,1.7
COc1cc(O)c2c(=O)c3c(O)c(O)ccc3oc2c1OC,27,3.6
Cc1csc(NC(=O)CSc2nc3[nH]c(=O)cc(O)c3s2)n1,93*,-1.1
CC(C)(CNC(=O)CNC(=O)c1ccc(Cl)cc1Cl)N1CCOCC1,-2,-3.3
CN1C[C@@H]2[C@@H]3C(=O)N(Cc4ccccc4)C(=O)[C@@H]3[C@](Cc3ccccc3)(C1=O)N2C(=O)c1ccc(F)cc1,-1,1.4
Cc1nc(SCC(=O)NC2CCS(=O)(=O)C2)c2c(C)c(C)sc2n1 (stereo unspecified),-4,-0.4
O=S(=O)(c1ccc(F)cc1)N1CCN(CC(O)COCc2ccccc2)CC1 (stereo unspecified),-1,-1.7
CCN(CC)S(=O)(=O)c1ccc(NC(=O)CSc2nc3nc(C)cc(C)c3c(=O)[nH]2)cc1,-7,4.5
CCOc1ccc(S(=O)(=O)N2CCC(C(=O)NCC(=O)Nc3cccc(Cl)c3C)CC2)cc1,-3,6.4
CN(C)C(=O)c1ccc(NC(=O)COC(=O)CCN=C2NS(=O)(=O)c3ccccc32)cc1,-2,-0.6
COCCn1c(COc2ccccc2)nnc1SCC(N)=O,4,-1.1
COCCN(C(=O)COC(=O)/C=C/c1ccc(SC)cc1)c1c(N)n(Cc2ccccc2)c(=O)[nH]c1=O,7,2.1
CCOC(=O)c1c(NC(=O)COC(=O)CCOc2cc(C)ccc2C)sc(C(=O)N(C)C)c1C,-6,3.2

# Whole records as entered above.
# Entry for `CCOc1ccc(NC(=O)CN(C)C(=O)c2ccc(OCC(=O)N3CCOCC3)c(OC)c2)cc1OCC` → Beta2AR agonist = 3; HNF4A DNA FP = -0.9
# Entry for `CN1C[C@@H]2[C@@H]3C(=O)N(Cc4ccccc4)C(=O)[C@@H]3[C@](Cc3ccccc3)(C1=O)N2C(=O)c1ccc(F)cc1` → Beta2AR agonist = -1; HNF4A DNA FP = 1.4

# Next entries.
SMILES,Beta2AR agonist,HNF4A DNA FP
C[n+]1c(-c2ccccc2)cc2c(=Cc3ccccc3)c3ccccc3n21,-24,3.4
CC1=CC(=O)[C@@H](O)[C@@H](c2ccccc2Br)N1C,0,-4.0
Cc1ccc(C(=O)Nc2cccc(S(=O)(=O)N3CCCCC3)c2)cc1S(=O)(=O)N1CCOCC1,6,-3.6
Nc1ccc(-c2nnn(Cc3ccccc3)n2)cc1,1,0.2
O=C(CSc1nc2scc(-c3cccs3)c2c(=O)n1CCc1ccccc1)N1CCCC1,-3,2.9
O=C(COC(=O)c1cccc(F)c1)NC(=O)NC1CCCC1,-2,-7.0
COc1ccc(NC(=O)CSc2ccc([N+](=O)[O-])cc2)cc1S(=O)(=O)N1CCOCC1,6,1.1
CC1CC(C)(C)CC2(C1)NC(=O)N(CC(=O)N1CCN(S(=O)(=O)c3ccc(F)c(F)c3F)CC1)C2=O (stereo unspecified),5,-9.7
O=C(CSc1nc2ccccc2o1)Nc1nc2c(s1)CCCC2,-1,55*
CSC1=C(C#N)C2(CCCCC2)C(C(=O)Nc2ccccc2)=C(C)N1,-3,3.7
NC(=O)c1ccsc1NC(=O)CN1CCN(S(=O)(=O)c2ccccc2C(F)(F)F)CC1,22,0.7
COc1ccc(C2/C(=C(/O)c3ccc(F)cc3)C(=O)C(=O)N2CCCN(C)C)cc1 (stereo unspecified),-4,-0.1
CCOC(=O)c1sc2ncn(CC(=O)Nc3cc(C)on3)c(=O)c2c1C,15,11
O=C(CC1SC(N2CCCCC2)=NC1=O)Nc1cccc(C(=O)N2CCCC(C(F)(F)F)C2)c1 (stereo unspecified),-4,2.2
CCOC(=O)C1CCN(C(=O)c2ccc(NS(=O)(=O)c3ccc4[nH]c(=O)[nH]c4c3)cc2)CC1,-1,3.5

# Only part of the results is shown, so the mix of outcomes need not match the whole.
